# STK33 inh = blocks human STK33 kinase activity. Q9BYT3. purified STK33, MBP phosphorylation, ADP-Glo luminescence. inhibition, % at 10 µM. hit rate 0.073% among 320,000;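 active means inhibition at or above 25%, using the most active replicate where run in duplicate; inactive means inhibition below 25%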
# Target sequence (Q9BYT3 whole entry, looked up): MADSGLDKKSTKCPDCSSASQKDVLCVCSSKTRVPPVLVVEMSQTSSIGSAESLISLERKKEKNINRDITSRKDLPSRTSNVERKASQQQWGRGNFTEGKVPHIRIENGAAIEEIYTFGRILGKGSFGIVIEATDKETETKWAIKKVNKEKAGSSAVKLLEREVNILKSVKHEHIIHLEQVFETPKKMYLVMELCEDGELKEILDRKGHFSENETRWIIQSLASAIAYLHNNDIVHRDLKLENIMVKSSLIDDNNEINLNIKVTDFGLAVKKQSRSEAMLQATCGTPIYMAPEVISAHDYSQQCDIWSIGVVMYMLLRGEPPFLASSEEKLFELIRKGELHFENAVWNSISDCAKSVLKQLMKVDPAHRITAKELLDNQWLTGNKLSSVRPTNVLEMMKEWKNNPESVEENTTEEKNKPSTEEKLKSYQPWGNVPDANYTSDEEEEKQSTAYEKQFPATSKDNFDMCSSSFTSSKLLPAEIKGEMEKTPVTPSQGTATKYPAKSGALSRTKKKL
# An asterisk follows results filed as active. The list is partial, and most or all hits are left out here.
SMILES,STK33 inh
CCOC(=O)c1sc(=S)n(C)c1NC(=O)c1ccc(C(C)(C)C)cc1,-3.3
CC1=C(C(=O)OC(C)C)[C@@H](c2ccc(C)o2)NC(=O)N1,0.3
O=C(NCCc1c[nH]c2ccccc12)OCCSS(=O)(=O)O,2.5
O=C1Nc2cc(C(=O)NCC3CCCO3)ccc2S/C1=C/c1ccccc1F (configuration not stated),-0.4
NC(=S)Nc1cccc(Cl)c1,-1.6
OCC[C@H]1C[C@@H](O)[C@H](O)[C@@]2(Cc3ccccc3O2)O1,-0.3
CCC(C)(NC(=O)c1ccc(=O)[nH]c1)C(=O)NC1CCCC1 (configuration not stated),0.9
Fc1ccccc1-n1cn[nH]c1=S,-0.3
CCOC(=O)c1sc(NC(=O)c2cccnc2)nc1C,0.9
CCOC(=O)/C(C#N)=C1/C=CNC(=O)N1,0.0

# Brought forward from above: 2 entries; new compounds follow.
SMILES,STK33 inh
CCOC(=O)c1sc(NC(=O)c2cccnc2)nc1C,0.9
CCOC(=O)/C(C#N)=C1/C=CNC(=O)N1,0.0
CCOC(=O)Nc1ccc2c(c1)N(C(=O)CN1CCN(C)CC1)c1ccccc1S2,-0.5
C=CCSc1nncn1/N=C/c1ccc(OC)cc1,0.0
CCOC(=O)C1(Cc2cccc(OC)c2)CCCN(C(=O)c2cc(CC(C)C)[nH]n2)C1 (configuration not stated),-1.3
Nc1nc(NCc2ccco2)nc(Nc2cccc(F)c2)c1[N+](=O)[O-],-0.5
CCNc1ccc(N=Nc2c(C)n(C)n(-c3ccccc3)c2=O)cc1,-0.5
Cc1c(C(=O)N2CCCCC2)c(S(=O)(=O)N2CCc3ccccc32)c(C)n1C,-0.7
O=C(Nc1ccnn1C1CCN(Cc2cccc(OCCO)c2)CC1)C1CCCC1,0.7
Cc1ccc(/C(=N\O)c2oc3c(C)c4oc(=O)cc(C)c4cc3c2C)cc1,0.2
COc1ccccc1CCC(=O)NNC(=O)c1ccccc1,-0.2
CCC1CN(S(=O)(=O)c2ccc3c(c2)NC(=O)CC(=O)N3)c2cc(Cl)ccc2O1 (configuration not stated),-0.2
CCC1SC2=NC(C)=C(C(=O)OCCOC)C(/C=C/c3ccccc3OC)N2C1=O (configuration not stated),-0.3
COCc1cc(N2CCCC2)nc(-c2ccccc2)n1,-0.3
Cc1csc(NC(=O)c2ccc(C)s2)n1,0.7
CCCc1nc2ccc(NC(C)=O)cc2c(=O)n1Cc1ccc(Cl)cc1,-1.1
CCC(C)(C)n1nnnc1C(c1cccs1)N1CCCCC1 (configuration not stated),-1.1
Cc1cccc(NC(=S)NCc2ccc(F)cc2)c1,0.6
O=C(CO/N=C/c1c(Cl)cccc1Cl)NNC(=O)c1cccc(Cl)c1,-1.9
COc1cccc(C2(O)CCN(C(=O)C3CC3)CC2)c1,0.0
Cc1ccc(-c2nc(C)sc2CC(=O)OCC(=O)Nc2c(F)cccc2F)cc1,0.5
COc1cc(OC)cc(N(C(=O)c2ccco2)C(C(=O)NC2CCCC2)c2ccc(N3CCOCC3)cc2)c1 (configuration not stated),-0.3
CC12C(=O)N(c3ccccn3)C(=O)C1C1C=CC2C1 (configuration not stated),-0.4
CCOc1ccc(/C=C2\CCC(C3CCCC3)C2=O)cc1OC (configuration not stated),-1.0
Cc1ccc(CN2CC(C(=O)N(Cc3nnc(-c4ccccc4Cl)o3)C3CC3)CC2=O)cc1 (configuration not stated),-1.0
CCN(CC)S(=O)(=O)c1ccc(C)c(NC(=O)COC(=O)CN2C(=O)NC(C)(C)C2=O)c1,0.5
CCN(CC)CCNC(=O)Cn1c(C)cc2ccccc2c1=O,-5.1
CCCCCCCc1nn2c(=O)cc(O)nc2s1,0.3
COc1ccc(C)cc1S(=O)(=O)NC1CCCCCC1,-1.2
O=C(CN(Cc1ccc(Cl)c(Cl)c1)S(=O)(=O)c1ccccc1)N/N=C\c1ccc2c(c1)OCO2,-1.7
Cc1nc2ncnn2c(C)c1CCC(=O)O,8.7
CC(C)Oc1ccc(C(CC(=O)O)NC(=O)Cc2ccc(Cl)cc2)cc1 (configuration not stated),-0.3
Cc1nc2ccc(Nc3nc4cc(S(=O)(=O)N5CCOCC5)ccc4o3)cc2s1,-0.9
COc1cc2ccccc2cc1C(=O)Nc1nc(C)c(C(C)=O)s1,-1.1
COc1ccc(O)c(CNc2ccccc2F)c1,0.5
O=C(Nc1ccccc1)N1CC=C(c2ccccc2)CC1,-4.0
Cc1cc(C)n(C(CC(=O)N2CCc3ccccc3C2)C(=O)O)n1 (configuration not stated),-0.6
CCOC(=O)CN1C(=O)N(CC)C(C)=C(C(=O)OC)[C@@H]1c1ccccc1,-1.8
O=C(Cn1nc([N+](=O)[O-])nc1Br)NC1CCCCC1,-1.2
CCC(C(=O)OCC(=O)Nc1cc(OC)ccc1OC)c1ccccc1 (configuration not stated),-2.2
O=C(CSc1nnnn1-c1ccc(F)cc1)NC1CCCCC1,0.6
COc1ccc(NC(=O)CSCC(=O)N(C)Cc2c(F)cccc2Cl)cc1,-0.4
Cc1ccc(S(=O)(=O)N2CCN(C(=O)CC3CCCC3)CC2)cc1,-0.6
COCCC(=O)Nc1ccc2c(c1)CN(C(=O)CCOC)CC2,0.4
COc1ccc(CC2(C)OC(c3ccc([N+](=O)[O-])cc3)=NN2C(C)=O)cc1 (configuration not stated),-2.0
COc1cc(CC(NC(C)=O)C(=O)NC2CCN(c3nc(OC)nc(OC)n3)CC2)cc(OC)c1 (configuration not stated),1.1
COc1cc(CC(=O)N2CCc3ccccc32)cc(OC)c1OC,-1.1
CC(=O)c1c(C)n([O-])c2cc(F)c(F)cc2[n+]1=O,-1.1
CCC(C)NC(=O)c1oc2ccc(S(=O)(=O)N3CCC4(CC3)OCCO4)cc2c1C (configuration not stated),0.5
COc1ccc(CCNc2nc(C)cc(C)n2)cc1OC,0.7
COc1ccccc1CCNC(=O)C(=O)Nc1cc2c3c(c1)CC(=O)N3CCC2,-1.1
CC(=O)Nc1ccc(S(=O)(=O)Nc2ccc(Cc3ccncc3)cc2)cc1,-0.4

# By substructure: those above containing a halogen (17)
SMILES,STK33 inh
O=C1Nc2cc(C(=O)NCC3CCCO3)ccc2S/C1=C/c1ccccc1F (configuration not stated),-0.4
NC(=S)Nc1cccc(Cl)c1,-1.6
Fc1ccccc1-n1cn[nH]c1=S,-0.3
Nc1nc(NCc2ccco2)nc(Nc2cccc(F)c2)c1[N+](=O)[O-],-0.5
CCC1CN(S(=O)(=O)c2ccc3c(c2)NC(=O)CC(=O)N3)c2cc(Cl)ccc2O1 (configuration not stated),-0.2
CCCc1nc2ccc(NC(C)=O)cc2c(=O)n1Cc1ccc(Cl)cc1,-1.1
Cc1cccc(NC(=S)NCc2ccc(F)cc2)c1,0.6
O=C(CO/N=C/c1c(Cl)cccc1Cl)NNC(=O)c1cccc(Cl)c1,-1.9
Cc1ccc(-c2nc(C)sc2CC(=O)OCC(=O)Nc2c(F)cccc2F)cc1,0.5
Cc1ccc(CN2CC(C(=O)N(Cc3nnc(-c4ccccc4Cl)o3)C3CC3)CC2=O)cc1 (configuration not stated),-1.0
O=C(CN(Cc1ccc(Cl)c(Cl)c1)S(=O)(=O)c1ccccc1)N/N=C\c1ccc2c(c1)OCO2,-1.7
CC(C)Oc1ccc(C(CC(=O)O)NC(=O)Cc2ccc(Cl)cc2)cc1 (configuration not stated),-0.3
COc1ccc(O)c(CNc2ccccc2F)c1,0.5
O=C(Cn1nc([N+](=O)[O-])nc1Br)NC1CCCCC1,-1.2
O=C(CSc1nnnn1-c1ccc(F)cc1)NC1CCCCC1,0.6
COc1ccc(NC(=O)CSCC(=O)N(C)Cc2c(F)cccc2Cl)cc1,-0.4
CC(=O)c1c(C)n([O-])c2cc(F)c(F)cc2[n+]1=O,-1.1

# (further entries)
SMILES,STK33 inh
CCc1cc(C(=O)N2CCCC(CCC(=O)N3CCN(c4ccccn4)CC3)C2)no1 (configuration not stated),0.1
Cc1ccc(/C=N/NC(=S)Nc2cccc(S(=O)(=O)N(C)C)c2)o1,0.5
O=C(NC1CCCN(Cc2ccc(Cl)cc2)C1)c1cccc(F)c1 (configuration not stated),0.5
CCOc1ccc(NC(=O)C(=O)NCCN2CCN(S(=O)(=O)c3ccccc3)CC2)cc1,1.9
COCCCNC(=S)NC1CC2CCC(C1)N2Cc1ccccc1 (configuration not stated),-0.1
CC(C)NC(=S)NN(c1ccccc1)c1ccccc1,-0.3
CCOc1ccc(C2CC(c3ccc(CC)cc3)n3nc(N)nc3N2)cc1 (configuration not stated),-0.6
COc1ccccc1C/C(N)=N/OC(=O)COc1cccc(C)c1,-2.1
O=C(Nc1cc2c3c(c1)CC(=O)N3CCC2)c1ccco1,2.0
COCCCNC(=O)c1cn(C)c(=O)c2c1c1ccccc1n2C,-0.2
O=C(/C=C/c1ccc(Cl)cc1Cl)N1CCc2ccccc21,-0.8
CCOc1ccc(NC(=O)CN(C)S(=O)(=O)c2cccs2)cc1,-0.5
CCO[C@@H]1OC(C(N)=O)=C[C@H](c2ccc(C(F)(F)F)cc2)[C@H]1CCCO,-1.0
CC(NC(=O)C(=O)N1CCCCC1)C(c1cccs1)N1CCN(c2ccccc2)CC1 (configuration not stated),-0.5
COc1ccc(C(C(=O)NC2CCCC2)N(Cc2cccnc2)C(=O)c2snc(C(N)=O)c2N)cc1 (configuration not stated),-0.3
COc1ccc2oc(C(=O)OCC(=O)Nc3cc(S(=O)(=O)N4CCOCC4)ccc3C)c(C)c2c1,-1.3
Cc1ccc(C(=O)NCC(=O)OC(C)C(=O)NC2CCCCC2C)cc1C (configuration not stated),2.2
Cc1ccc2c(c1)c1ncnc(N3CCc4ccccc4C3)c1n2C,7.5
O=C(CCCc1c[nH]c2ccccc12)Nc1ccc2ccccc2c1,-0.3
c1nnc2c3c4c(sc3ncn12)CCC4,1.9
NC1=NC(c2cccc(O)c2)n2c(nc3ccccc32)N1 (configuration not stated),-1.2
O=C(NCCc1ccc(Cl)cc1)C1CCCN(S(=O)(=O)c2cnc[nH]2)C1 (configuration not stated),0.8
Cc1cc(C)cc(NS(=O)(=O)c2ccc(NC(=O)c3ccccc3C(=O)O)cc2)c1,0.0
CC(=O)c1ccc(NC2OC(C)C(O)C(O)C2O)cc1 (configuration not stated),3.1
CCOc1ccc2nc(SCC(=O)c3ccc(Cl)s3)sc2c1,-1.8
CC(C)CC(=O)NC1(C(F)(F)F)NC(=O)N(c2ccccc2)C1=O (configuration not stated),-1.0
COc1cccc(/C=C/C(=O)OCC(=O)Nc2ccc(S(=O)(=O)N3CCCC3)cc2)c1,-2.3
O=C(/C=C/c1cccs1)Nc1ccc(S(=O)(=O)Nc2ncccn2)cc1,-2.6
CCOC(=O)C[C@H]1c2ccc(C(F)(F)F)cc2S(=O)(=O)N1Cc1ccccc1,0.5
Cc1cccc(C(=O)NCC(=O)OCc2nnc(-c3ccccc3)o2)c1,-1.1
COc1ccccc1N1CCN(C(=O)CCCN2C(=O)c3cccc4cccc(c34)C2=O)CC1,-1.1
O=C(O)c1cccc(-n2c(O)c(C=C3N=c4ccccc4=N3)sc2=S)c1,0.1
COC(=O)C[C@H]1c2cc(F)cc(F)c2S(=O)(=O)N1C1CCN(Cc2ccccc2)CC1,0.0
CCOC(=O)Nc1ccc(S(=O)(=O)NCCCN2CCOCC2)cc1,-1.7
CCOC(=O)C(NC(C)=O)(Nc1ccc(S(=O)(=O)Nc2onc(C)c2C)cc1)C(F)(F)F (configuration not stated),0.0
CCOc1cc(NC(=S)NCC(C)C)c(OCC)cc1NC(=O)c1cccs1,0.9
Cc1ccc2nc(-c3ccc(NS(C)(=O)=O)cc3)cc(-c3ccccc3)c2c1,-0.7
CCC(CC)C(=O)c1c[nH]c(C(=O)NCCCn2ccnc2)c1,-0.5
CCOc1cc(S(=O)(=O)N2CCN(Cc3ccccc3)CC2)ccc1Br,0.0
O=C(N/N=C/c1cc2ccccc2nc1Cl)/C(=C/c1cccs1)NC(=O)c1ccccc1,1.2
Cc1nn(C)c(C)c1S(=O)(=O)N1CCC(C(=O)Nc2ccc3c(c2)OCCO3)CC1,-0.4
O=C(COC(=O)c1c(F)cccc1F)Nc1ccccc1OC(F)F,0.5
CCN(CC)S(=O)(=O)c1ccc(NC(=O)COC(=O)c2c[nH]c(=O)[nH]c2=O)cc1,-4.1
COc1ccc2c(c1)C(C1C(=O)CCCC1=O)c1ccccc1O2 (configuration not stated),-1.6
O=C(Nc1ccccc1N1CCCC1)c1ccc(Cl)cc1Cl,-0.8
Cc1noc(NS(=O)(=O)c2ccc(NC(=O)CS(=O)(=O)c3ccccc3)cc2)c1C,-1.4
CCC(Sc1nc(C)cc(C)n1)C(=O)Nc1ccc(S(N)(=O)=O)cc1 (configuration not stated),-1.3
O=C(CN1CCCCC1)N/N=C/c1ccc(Cl)cc1,0.8
COc1ccccc1C(=O)N1CCN(Cc2nc(CC3CC3)no2)CC1,-0.1
CCOC(=O)c1cc(C)sc1/N=C/C1=C(O)CCCC1=O,0.2

# (more compounds)
SMILES,STK33 inh
CC1CN(c2nc(-c3ccccc3)nc3ccccc23)CC(C)O1 (configuration not stated),1.2
CCNC(=S)N1CCC(C(O)(c2ccccc2)c2ccccc2)CC1,-0.5
COc1ccc(NC(=O)CN(C)C(=O)CCCSc2nc3ccccc3[nH]2)cc1,-1.3
COc1ccc(C(=O)N2CCN(C3CCCCC3)CC2)cc1OC,-0.3
O=C(Nc1ccccc1-c1nnn(CC(=O)N2CCOCC2)n1)c1ccc(F)cc1,0.0
COC(=O)c1cc2occc2n1Cc1nc(-c2ccc(Cl)cc2)oc1C,-0.6
O=C(NNC(=S)Nc1ccc(F)cc1)[C@H]1C[C@@H]1c1ccccc1,2.1
Cc1[nH]c2ccc(C(=O)NCCCN3CCOCC3)cc2c1C,0.6
CCCCNC(=O)N(C)c1nc2ccccc2s1,0.6
CC(c1n[nH]c(=S)n1-c1ccc(Cl)cc1)N(C)C (configuration not stated),-1.1
c1ccc(-c2cc3c(N4CCN(c5ccccc5)CC4)ncnc3s2)cc1,-0.3
N#Cc1cc(NC(=O)c2ccc(F)cc2)c(=O)n2c1[nH]c1ccccc12,-2.1
O=S(=O)(c1ccc(Br)cc1)c1nc(-c2ccccc2)oc1NCCN1CCOCC1,-1.9
C/C=C/c1ccc(OCCOc2ccc(C=O)cc2OC)c(OC)c1,0.1
CCC(C)(C(=O)NC1CCCC1)N(Cc1ccco1)C(=O)Cc1cccs1 (configuration not stated),-0.3

# Bioassay records as filed in PubChem.
